# LASV entry inh: blocks Lassa virus binding to or entry into cells. Lassa virus pseudotype entry inhibition, cell reporter; control for the full effect not named in the record. Potency, µM (series often up to 37.9 µM), for the others: at the highest dose activity change, negative = inhibition, usual class: inhibitors. 300,000 compounds, 1.2% hits; active means well fitted inhibition curve with a large enough effect; inconclusive means small, poorly fitted or top-dose-only effect, or effect the other way; inactive means flat fitted curve, though single readings scatter; tested in HEK293 cells; note: % is set by controls: 0 for no effect and ±100 for the full control effect; nearly all actives have a fitted effect of over 50% in size; luciferase read-out
# NS1 inh: blocks influenza NS1 protein function. 270,000 compounds, 0.4% hits. Potency, µM (top dose mostly 46.1 µM), without a hit: at the highest dose activity, positive = more growth. S. cerevisiae slowed by influenza A NS1, growth recovery by OD600; active means well fitted rising curve with a large enough effect; inconclusive means small, poorly fitted or top-dose-only effect; inactive means no such curve, though single readings can be large or run the other way; note: nearly all actives have a fitted effect of over 50% in size
#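 Read-out: OD600 growth recovery of NS1-expressing budding yeast. Cells grown overnight at 30C in -URA glucose medium, washed, resuspended and diluted 1:100 in 2% galactose assay medium, pH 6.0. Same strain lacking NS1 served as positive control.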
# Cruzain noTriton: inhibitors of Trypanosoma cruzi cruzain without detergent. P25779. purified cruzain, Z-FR-AMC fluorescence, no detergent. Potency, µM, inactives show max response, negative = inhibition, hits mostly inhibitors. 200,000 compounds, 2.3% hits;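 note: plate controls were enzyme without inhibitor for no effect and buffer without enzyme for full effect; nearly all actives have a fitted effect of over 40% in size; top concentration of the series not given in the record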
# Target sequence (P25779 123-467 limits assumed): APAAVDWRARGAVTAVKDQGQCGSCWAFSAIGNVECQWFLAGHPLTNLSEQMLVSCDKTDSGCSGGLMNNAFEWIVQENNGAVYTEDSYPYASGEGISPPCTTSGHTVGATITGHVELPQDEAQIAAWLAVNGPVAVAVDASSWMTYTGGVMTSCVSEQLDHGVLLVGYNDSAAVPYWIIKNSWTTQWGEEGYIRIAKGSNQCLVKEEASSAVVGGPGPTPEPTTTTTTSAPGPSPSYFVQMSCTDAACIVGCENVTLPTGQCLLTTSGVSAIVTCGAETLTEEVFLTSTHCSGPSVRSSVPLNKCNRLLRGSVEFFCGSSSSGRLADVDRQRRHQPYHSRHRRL
#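 Detergent-free condition (0.00005% Triton X-100) in acetate buffer pH 5.5 with DTT. 1.5 nM enzyme and compound were pre-mixed 15 min, then 2 uM Z-FR-AMC substrate added; reaction progress from fluorescence change between first and third reads (60 s).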
# 2A StopGo: FMDV 2A StopGo reporter, luciferase signal; human cells with a luciferase reporter of 2A StopGo recoding; control for the full effect not named in the record; Potency, µM (doses to about 57.9 µM), for inactives: top-dose signal change, negative = less light; 410,000 compounds, 1.2% hits; AID 1159524; active = well fitted falling curve with a large enough effect; inconclusive = small, poorly fitted or top-dose-only effect; inactive = no such curve, though single readings can be large or run the other way; tested in HEK293T cells; note: % is set by controls: 0 for no effect and ±100 for the full control effect; nearly all actives have a fitted effect of over 45% in size; luciferase light after 4 h
# SARS PLP yeast: inhibitors of SARS-CoV papain-like protease in yeast | Potency, µM (doses to about 32.9 µM), inactives show at the top dose activity, positive = growth rescue | AID 485353 | 330,000 compounds, 0.19% hits | S. cerevisiae expressing SARS-CoV PLpro, growth rescue; control for the full effect not named in the record; active means well fitted rising curve with a large enough effect; inconclusive means small, poorly fitted or top-dose-only effect; inactive means no such curve, though single readings can be large or run the other way; note: 0% is about no effect; nearly all actives have a fitted effect of over 55% in size; growth read by luminescence after 48 h
# Cruzain Triton: inhibitors of Trypanosoma cruzi cruzain with detergent. 200,000 compounds, 0.43% hits. purified cruzain, Z-FR-AMC fluorescence, 0.01% Triton. AID 1478. Potency, µM, for the others: max response, negative = inhibition, most hits filed as inhibitors;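 note: plate controls were neutral wells for no effect and buffer without enzyme for full effect; nearly all actives have a fitted effect of over 40% in size; top concentration of the series not given in the record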
#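 Detergent-containing arm of a paired screen for aggregation-based inhibition: 0.01% Triton X-100 present. Cruzain at 1.5 nM cleaved 2 uM Z-FR-AMC at pH 5.5 with 5 mM DTT; AMC fluorescence gain over 60 s measured activity.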
# RE007 growth inh: less growth of the S. pombe RE007 Vpr strain | Potency, µM (titrated, usually from 92.2 µM), without a hit: at the highest dose activity change, negative = less growth | S. pombe RE007 Vpr strain, BacTiter-Glo ATP luminescence, 24 h; control for the full effect not named in the record | 360,000 compounds, 0.21% hits; active = well fitted falling curve with a large enough effect; inconclusive = small, poorly fitted or top-dose-only effect; inactive = no such curve, though single readings can be large or run the other way;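 note: % is set by controls: 0 for no effect and ±100 for the full control effect; nearly all actives have a fitted effect of over 50% in size; the assay follows cell death caused by Vpr and the record does not say whether a fall means rescue or toxicity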
#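 Fission yeast strain RE007, carrying one chromosomally integrated HIV-1 vpr copy, was seeded at OD 0.01 in PMG+AL medium with 23 nL pinned compound. After 24 h at 30 °C and 99% humidity, viability was read by BacTiter-Glo luminescence.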
# Marburg entry inh: Marburg virus entry inhibition; Marburg virus pseudotyped entry inhibition, cell reporter; control for the full effect not named in the record; about a third of the inactives were read at about 46 µM; Potency, µM (highest dose often 37.8 µM), inactives show top-dose activity change, negative = inhibition, hits mostly inhibitors; 300,000 compounds, 1.8% hits; active = well fitted inhibition curve with a large enough effect; inconclusive = small, poorly fitted or top-dose-only effect, or effect the other way; inactive = flat fitted curve, though single readings scatter; tested in HEK293 cells; about a fifth of its hits are not listed in these tables; note: % is set by controls: 0 for no effect and ±100 for the full control effect; luciferase read-out
# * hit, by the source's call; u = inconclusive; x = no result given; [ ] = remark or other dose. Unless noted, calls come from the whole dose curve; as a rule, active = well fitted curve in the direction sought with a large enough effect; inconclusive = small, poorly fitted or top-dose-only effect, or another doubt; inactive = no such curve, though single readings can be large; an effect the other way counts as inactive or inconclusive. Potency is the fitted concentration of half-maximal effect.
SMILES,LASV entry inh,NS1 inh,Cruzain noTriton,2A StopGo,SARS PLP yeast,Cruzain Triton,RE007 growth inh,Marburg entry inh
CCOC(=O)c1cc(S(=O)(=O)Nc2ccccc2OCC)[nH]n1,3%[46.1 µM],x,16%,21%,x,1.7%,x,x
O=[N+]([O-])c1cccc(NP(=O)(N2CC2)N2CC2)c1,u,x,x,-1%,x,x,-6%,u
COc1ccc(CC(=O)N2CCCc3ccccc32)cc1,1%,-16%,-12%,13%,-11%,1.8%,-29%,-18%
O=C(c1ccc(Cn2c(=S)[nH]c3ccc(N4CCOCC4)cc3c2=O)cc1)N1CCC(N2CCCCC2)CC1,0%,7%,x,0%,0%,x,-7%,u
COCCn1c(CCC(=O)Nc2ccc(OC)c(OC)c2)nc2cccnc21,u,x,-18%,-16%,x,-0.5%,x,9%[46.1 µM]
CC(OC(=O)c1ccc(=O)n(Cc2ccccc2)n1)C(=O)Nc1cccc(Cl)c1 (stereo not drawn),10%,x,x,-20%,-11%,x,u,6%
O=C(Nc1ccc(NC(=O)c2ccco2)c(Cl)c1)c1ccccc1,x,2%,x,54%[activator],-2%,x,-3%,x
CC(C)(C)c1ccc(/C=C/C(=O)c2ccc(NC3=NCCCS3)cc2)cc1,x,12%,32µM*,-25%,-132%,-24%,u,3%
Cc1cccc(NC(=O)c2cc3ccccc3c(=O)o2)n1,11%,9%,x,0%,x,x,7%,21%[46.1 µM]
CCc1ccccc1S(=O)(=O)Cc1ccc(C(=O)N2CCN(c3ccccc3OC)CC2)o1,x,-46%,u,u,-6%,-0.9%,13%,x
Cc1cc(C)c(NC(=O)C2CCN(c3nn4c(=O)cc(C)nc4s3)CC2)c(C)c1,7%[46.1 µM],x,3%,2%,x,-3.0%,x,14%[46.1 µM]
CCCC(=O)NC(c1ccc(Cl)cc1)c1ccc2cccnc2c1O (stereo not drawn),4µM*,-107%,x,-9%,-17%,x,u,3.5µM*
O=C(NCCc1ccccc1)c1ccc2c(c1)CCN2S(=O)(=O)c1ccccc1,u,x,-4%,12%,x,-5.1%,x,-7%[46.1 µM]
COc1cccc(/C=C2/SC(=O)N(CC(=O)N3CCc4ccccc4C3)C2=O)c1OCC(=O)O,-3%,24%,u,-8%,-1%,-1.4%,-10%,-9%
Cc1nccn1-c1c([N+](=O)[O-])c(=O)n(C)c2ccccc12,u,0%,x,u,0%,x,2%,-16%
CC(=O)Nc1ccc(S(=O)(=O)Nc2ccc3c(c2)CCC3)cc1,-27%[46.1 µM],20%,x,1%,19%,x,7%,u
c1ccc2c(N3CCCCC3)nnc(N3CCCCC3)c2c1,x,-9%,-1%,x,4%,-5.5%,x,x
Cc1cc(NC(=O)C2CCN(S(=O)(=O)c3cccc4nsnc34)CC2)ccc1Br,21%[46.1 µM],x,-18%,-21%,x,-2.4%,x,-7%[46.1 µM]
COc1ccc(C(=O)NC(=S)N2CCCCC2c2cccnc2)cc1OC (stereo not drawn),x,-12%,x,u,-3%,x,-13%,x
Cc1c(Cl)cccc1NC(=O)C1CCCN(c2ncnc3onc(C)c23)C1 (stereo not drawn),0%[46.1 µM],x,2%,u,x,0.5%,x,x
CCCCC(=O)OCC(=O)C1(O)Cc2c(O)c3c(c(O)c2C(OC2CC(NC(=O)C(F)(F)F)C(O)C(C)O2)C1)C(=O)c1c(OC)cccc1C3=O (stereo not drawn),u,x,x,-3%,x,x,9%,u
COC(=O)c1ccc(Cn2c(CN3CCOCC3)nc3ccccc3c2=O)o1,-8%,-18%,14%,-7%,4%,1.5%,18%,-1%
Cc1cccc(-n2c(SCC(=O)N3CCCC3)nnc2-c2ccccn2)c1C,-19%,-3%,1%,-19%,-3%,2.8%,-2%,13%
Cc1nc(N)nc(N/N=C/c2ccccc2)n1,x,-3%,x,18%,-1%,x,9%,x
Nc1nc(-c2ccc3c(c2)CCO3)cs1,u,x,x,71%[activator],0%,x,6%,-5%[46.1 µM]
CCC1Oc2ccc(C)cc2N(CC(=O)NCCc2ccccc2)C1=O (stereo not drawn),u,x,-5%,-6%,x,-0.2%,x,x
COc1ccccc1-n1cc(-c2ccc([N+](=O)[O-])cc2)[nH]c1=S,17%[46.1 µM],10%,x,-9%,1%,x,28%,10%[46.1 µM]
CCOc1ccc(-c2nonc2NC(=O)c2oc3ccc(Br)cc3c2C)cc1,u,x,u,-7%,x,-0.8%,x,-23%[46.1 µM]
COP1(=O)C=C[C@H](N(Cc2ccccc2)S(=O)(=O)c2ccccc2[N+](=O)[O-])[C@@H](C)O1 (stereo partly drawn),x,-1%,x,-9%,-1%,x,-12%,x
CCn1cc(C(=O)N2CC(C)CC(C)C2)c(=O)c2cc(S(=O)(=O)N(C)C)ccc21 (stereo not drawn),x,-2%,x,44%[activator],0%,x,0%,x
CCOC(=O)c1sc(NC(=O)CSc2nc(C)cc(C(F)(F)F)n2)c(C#N)c1C,61%[14.3 µM],-1%,-3%,-17%,-3%,-1.0%,-27%,-21%
Cc1ccc(NC(=O)CSc2cn(CC(=O)N3CCOCC3)c3ccccc23)cc1Cl,-3%[46.1 µM],x,u,-20%,x,-4.5%,x,x
Cn1c(N)c(C(=O)CSc2nnc(C3CC3)n2-c2ccccc2)c(=O)[nH]c1=O,20%,x,x,-13%,-4%,x,-10%,11%
COc1ccc(OCc2cc(C(=O)NCC(C)(C)N3CCOCC3)no2)c(Cl)c1,1%,-10%,x,-2%,4%,x,9%,-10%
CCOC(=O)C1OC2(CCCC2)OC1C(=O)OCC (stereo not drawn),14%,x,x,-8%,x,x,12%,19%
Cc1ccc2cc(C(c3nnnn3CC3CCCO3)N3CCCC4(CCCCC4)C3)c(=O)[nH]c2c1 (stereo not drawn),8%,-12%,x,2%,x,x,10%,1%
CC1(C)Cc2c(sc3ncn(N)c(=N)c23)CO1,1%,8%,0%,-22%,3%,-2.0%,-23%,29%
COCCN(C(=O)c1ccccc1F)c1c(N)n(Cc2ccccc2)c(=O)[nH]c1=O,-18%[46.1 µM],x,x,-17%,6%,x,3%,5%[46.1 µM]
Nc1cc(C(F)(F)F)ccc1NCCc1ccccn1,6%[46.1 µM],9%,x,0%,2%,x,-5%,8%[46.1 µM]
Cc1cc(C)cc(NC(=O)C(=O)NCC(c2ccc3c(c2)OCO3)N2CCOCC2)c1 (stereo not drawn),-20%[46.1 µM],x,0%,-21%,x,-0.3%,x,x
CCOc1ccccc1NC(=O)c1cccc(NC(=O)C(C)C)c1,x,-8%,x,3%,-1%,x,2%,x
CCc1cccc(C)c1NC(=O)C1CCN(C(=O)c2ccc([N+](=O)[O-])cc2)CC1,x,1%,x,-22%,0%,x,11%,x
COc1cccc(CNC(=O)C2CCN(S(=O)(=O)N3CCCCC3)CC2)c1,u,0%,-11%,-13%,3%,-4.5%,-16%,8%
CCOc1ccc(NC(=O)Cn2ccn(-c3ccc(F)c(F)c3)c(=O)c2=O)cc1,u,x,u,-15%,x,-17%,x,x
C=CCN1C(=O)C2(C(C(=O)OCC)=C(N)Oc3ccccc32)C2=C1CCCC2=O (stereo not drawn),12%,0%,10%,-1%,-2%,3.0%,8%,5%
Cc1cc(NC(=O)COC(=O)C2CCN(S(=O)(=O)c3c(Cl)cccc3Cl)CC2)no1,15%,-7%,8%,-12%,0%,-1.9%,-10%,9%
CC(C)CC1(C)NC(=O)N(CCN2C(=O)c3ccccc3C2=O)C1=O (stereo not drawn),-1%,3%,1%,0%,-11%,2.5%,-19%,23%
O=C(NCC1CCCO1)c1ccc2c3n(nc2c1)-c1ccccc1CO3 (stereo not drawn),x,-6%,x,32%[activator],-4%,x,-2%,x
COCCCNC(=O)c1ccc(CS(=O)(=O)c2ccc(Br)cc2)o1,x,-2%,3%,-10%,-1%,5.2%,10%,x
O=C1NC(=O)/C(=C/c2ccc(OS(=O)(=O)c3ccc(F)cc3F)cc2)N1,u,-1%,x,-23%,-1%,x,0%,u
Cc1cccn2c(=O)c3cc(C(=O)N4CCOCC4)n(C)c3nc12,9%,9%,x,2%,1%,x,-7%,6%
O=S(=O)(Nc1ncccn1)c1ccc(NS(=O)(=O)c2cc(Cl)ccc2Cl)cc1,-15%,x,x,20%,1%,x,-14%,-1%[46.1 µM]
CCOC(=O)c1cccc(NC(=O)c2cc(C)nc3c2c(C)nn3-c2ccc(C)cc2)c1,0%[46.1 µM],x,-23%,-22%,x,-7.0%,x,x
CC(C)Oc1ccc(C(=O)Nc2ccc(S(=O)(=O)N3CCN(C)CC3)cc2)cc1,x,4%,x,-28%,-7%,x,2%,x
CCCOC(=O)c1ccc2c(c1)C(=O)N(c1ccccc1)C2=O,-9%,-4%,3%,x,2%,2.9%,-8%,u
Cc1ccc(N2C(=O)NC(=O)C(CCc3ccccn3)(Cc3cccc(Cl)c3Cl)C2=O)cc1 (stereo not drawn),6%,-10%,-1%,-25%,14%,-6.8%,-6%,10%
CCc1ccccc1NC(=O)CC1SCCNC1=O (stereo not drawn),10%,x,x,-1%,3%,x,-4%,28%[46.1 µM]
O=C(/C=C/c1ccc([N+](=O)[O-])cc1)Nc1cccc(C(=O)Nc2ccccc2C(=O)O)c1,x,11%,x,2%,5%,x,6%,x
CCCn1nc2cc(C(=O)NCc3ccc(C)cc3)ccc2c1OCC,x,-27%,-4%,7%,3%,-4.6%,9%,x
CCOC(=O)c1ccc(N2C(=O)c3n[nH]c(-c4ccco4)c3C2c2ccc(O)c(OCC)c2)cc1 (stereo not drawn),u,x,-28%,u,x,-10%,x,7.9µM*
Cc1nnc(NC(=O)c2cccc(S(=O)(=O)N3CCc4ccccc43)c2)s1,-2%,11%,11%,-18%,8%,-1.8%,-5%,-5%
CN(NC(N)=O)c1ncc(C(F)(F)F)cc1Cl,-1%,2%,-3%,1%,1%,1.8%,-5%,0%

# Compounds as they come; any-hit rate near 4.8%.
